Env fusion inh – HIV envelope-mediated fusion inhibition; AID 651610; inhibition, % at 12.3 µM; actives 1.1% (n = 360,000); HeLa-JRFL Env/CEM21 cell fusion, luciferase;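 active = mean replicate inhibition score of at least 50 and every replicate individually at or above 50; inconclusive = only one of the two criteria met; inactive = mean below 50 and not all replicates reaching 50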;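 also: 0% = plate neutral controls and 100% = maraviroc near 300 nM; one replicate is shown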
eIF4H inh – inhibitors of RNA binding by human eIF4H; Q15056; eIF4H fluorescence polarization binding assay; inhibition, % at 35 µM; actives 0.94% (n = 290,000); AID 2012;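 active = 50% or more with normal probe brightness, or confirmed in later tests; inconclusive = above 50% with abnormal brightness, or retests that disagree; inactive = below 50% or failed in later tests; about a fifth of its hits are not listed in these tables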;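 also: calls also rest on retests at 20 µM and on dose response follow-up; 0% = protein and probe with vehicle and 100% = probe without protein; strong numbers were not always called active; many hits fall short of the cut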
PABP FP inh – blocks human PABP binding to poly(A) RNA. AID 2014. P11940. inhibition, % at 35 µM. fluorescence polarization. actives 1% (n = 290,000);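 active = 50% or more with normal probe brightness, or confirmed in later tests; inconclusive = above 50% with abnormal brightness, or retests that disagree; inactive = below 50% or failed in later tests; about a fifth of its hits are not listed in these tables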;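 also: calls also rest on retests at 20 µM and on dose response follow-up; controls were probe without protein and protein plus probe with vehicle; some compounds called inactive have numbers as strong as hits; many hits fall short of the cut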
Target sequence (P11940 whole entry, looked up): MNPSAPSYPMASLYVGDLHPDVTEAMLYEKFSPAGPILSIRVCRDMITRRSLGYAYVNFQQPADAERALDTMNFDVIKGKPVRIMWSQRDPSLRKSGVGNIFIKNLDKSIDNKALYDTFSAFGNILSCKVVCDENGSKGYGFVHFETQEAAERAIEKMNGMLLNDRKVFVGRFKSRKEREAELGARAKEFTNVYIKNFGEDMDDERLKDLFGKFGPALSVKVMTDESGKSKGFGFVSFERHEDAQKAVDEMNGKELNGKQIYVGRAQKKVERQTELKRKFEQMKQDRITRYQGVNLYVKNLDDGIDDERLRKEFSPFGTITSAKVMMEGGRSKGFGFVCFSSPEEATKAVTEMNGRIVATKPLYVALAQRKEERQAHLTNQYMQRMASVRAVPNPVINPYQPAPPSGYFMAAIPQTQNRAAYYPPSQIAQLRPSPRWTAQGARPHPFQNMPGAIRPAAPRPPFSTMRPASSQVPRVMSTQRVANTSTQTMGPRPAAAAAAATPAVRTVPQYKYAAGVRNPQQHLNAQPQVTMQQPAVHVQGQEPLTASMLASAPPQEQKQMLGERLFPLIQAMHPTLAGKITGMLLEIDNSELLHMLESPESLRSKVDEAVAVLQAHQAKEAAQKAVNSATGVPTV
UUG fidelity – alters start codon recognition fidelity in yeast. actives 0.13% (n = 350,000). S. cerevisiae UUG-firefly luciferase reporter, luminescence/redox ratio. activity score, % at 18.7 µM. AID 602363;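 active = replicate mean at a twofold rise or more, about +100% in these data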;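 also: firefly luciferase made from a UUG start codon reports start codon fidelity; reporter light over untreated wells divided by growth signal over untreated wells; some hits fall short of that in this replicate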
CSC inhib – blocks cancer stem cells | cancer stem cell-like cells viability, luminescence | inhibition, % at 7.5 µM | actives 1.1% (n = 300,000) | AID 2717;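 active = mean at 75% or more and at least half the replicates too; inconclusive = mean and replicates disagree; tested in HMLE shEcad cells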;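 also: 0% = median of negative and 100% = median of positive control wells; the first replicate is given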
MT1-MMP act inh – MT1-MMP (human) activation inhibition | P50281 | HT1080 RFP-PRO-GFP cells, GFP/RFP ratio fluorescence, overnight; percent of plate control window, DMSO zero | GFP/RFP ratio change, % at 20 µM | actives 0.061% (n = 360,000) | AID 651647;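 active = GFP/RFP ratio change of at least 30% with cell ATP level not reduced by more than half and red fluorescence within 50% of control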; also: strong numbers were not always called active
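Material: RFP-PRO-GFP reporter HT1080 cells. Dosing: single-point 20 µM compound, 1% DMSO. Controls: DMSO and RFP-L50D-GFP cell wells. Timing: cells overnight before dosing, compound overnight, 37 °C, 5% CO2. Measure: GFP/RFP fluorescence ratio.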
Rce1 inh – blocks yeast Ras-converting enzyme. yeast membranes, quenched prenylated peptide cleavage fluorescence. calls only. actives 0.27% (n = 290,000). AID 2563;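 active = fall in fluorescence gain of 50% or more versus controls, with final raw signal at or below 3038400; inconclusive = same 50% fall but final raw signal above 3038400; inactive = fall in fluorescence gain under 50%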;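 also: plate controls were neutral control wells for no effect and wells lacking membranes for full effect; tested at 10 µM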
Target sequence (Q03530 whole entry, looked up): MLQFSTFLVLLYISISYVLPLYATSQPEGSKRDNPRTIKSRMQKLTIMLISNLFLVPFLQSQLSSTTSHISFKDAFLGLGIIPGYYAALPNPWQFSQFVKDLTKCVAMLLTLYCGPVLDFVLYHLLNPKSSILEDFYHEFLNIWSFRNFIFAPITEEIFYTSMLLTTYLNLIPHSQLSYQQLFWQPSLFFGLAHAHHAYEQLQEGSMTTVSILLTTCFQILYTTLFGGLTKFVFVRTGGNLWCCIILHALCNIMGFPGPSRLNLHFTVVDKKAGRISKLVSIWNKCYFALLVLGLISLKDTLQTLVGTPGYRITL
eIF4H inh retest – further read-out of eIF4H inh, marked with its call; inhibition, %; compound at 20 µM; confirmation average;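 mean of two retest wells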
PABP FP inh retest – second read-out of PABP FP inh, no call of its own (marks repeat the call); inhibition, %; compound at 20 µM; confirmation repeats;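 mean of two retest wells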
MT1-MMP act inh RFP – second read-out of MT1-MMP act inh, no call of its own (marks repeat the call); RFP signal change, %; measured here: RFP expression control read;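 0 = vehicle wells; hits needed this value within 50% of zero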
Starred values were filed as active, the others as inactive; i = inactive; ? = inconclusive; . = not tested or not shown. No enrichment for hits (roughly 3% active in at least one column).

SMILES	Env fusion inh	eIF4H inh	PABP FP inh	UUG fidelity	CSC inhib	MT1-MMP act inh	MT1-MMP act inh RFP	Rce1 inh	others
Cc1cccc(C)c1NC(=O)CS(=O)CC(=O)NC1CCCc2ccccc21 (stereo unspecified)	-25	3	-8	-3	-11	1	-2	.
COc1ccccc1C(=O)NC(=O)CSc1nc(C)cs1	-12	.	.	-17	5	-1	3	i
CC1CCC2(CC1)NC(=O)N(CC(=O)NCCc1ccccc1)C2=O (stereo unspecified)	-11	.	.	3	-11	.	.	.
CC(C)(C)c1csc(NC(=O)Cc2cccs2)n1	-3	4	12	.	-3	-16	-19	i
C=CCn1c(C(c2ccccc2)c2ccccc2)n[nH]c1=S	16	3	-2	-18	-9	-2	3	i
CC(=O)c1ccc(NC(=O)CS(=O)(=O)c2cn(CC(=O)N3CCOCC3)c3ccccc23)cc1	-2	1	-4	-6	-5	1	6	i
COc1ccc(CCNC(=O)CCn2c(=O)oc3ccccc32)cc1OC	-5	-8	38	-8	-14	2	4	i
N#C/C(=C\C1=C(N2CCOCC2)C(=C\c2ccccc2)/CC1)C(=O)Nc1ccccc1F	3	?	-10	.	.	-3	69	i
O=C(Nc1ccc2c(c1)OCO2)c1ccc(N2CCCC2)c([N+](=O)[O-])c1	-17	-4	-10	-19	67	9	1	i
O=C(Cn1c(=O)oc2ccccc21)Nc1ccc(Cl)cc1Cl	3	11	-7	.	5	6	5	i
Cn1c(C(=O)N2CCCC(C(=O)NCCCc3ccccc3)C2)cc2sccc21 (stereo unspecified)	.	-3	4	-11	.	-2	-6	i
CC(CCN1C(N(C)C)=NC[C@@H]1C)c1ccccc1 (stereo partly specified)	-6	.	.	-12	2	0	0	.
CC(=O)c1cccc(N=C2C(=O)Nc3ccccc32)c1	-25	-3	1	-19	-2	-6	9	i
COC(=O)c1ccccc1NC(=O)N1CCN(c2ccccc2)CC1	5	8	6	.	-8	2	-1	i
Cc1cccc(/C=N\N=C\c2cccc(C)c2)c1	-5	4	4	-18	2	3	0	i
Cc1nc(C(=O)NCCCO)cc2c1[nH]c1ccccc12	-25	-2	-6	.	-5	4	2	i
O=C(Nc1ccc(N2CCOCC2)nc1)c1ccc(F)cc1	-53	40*	65	-6	-12	7	3	i	eIF4H inh retest=90*;PABP FP inh retest=45
CC(C)C(c1nnnn1CCc1ccccc1)N1CCC(C(N)=O)CC1 (stereo unspecified)	-17	8	-4	.	-9	3	4	i
CC(C)(Oc1ccc(Cl)cc1)C(=O)Nc1ncccn1	-93	-4	-7	-1	13	-3	2	i
O=C(CO/N=C/c1ccc2c(c1)OCO2)Nc1cccc(Br)c1	-1	-1	8	5	-6	-1	-2	i
O=C(COc1ccc(Br)cc1)NCc1cn2ccccc2n1	0	-5	9	.	-9	4	-1	i
Cc1ccc(OCC(=O)NCCCNC(=O)COc2ccc(C)cc2)cc1	.	8	4	17	.	0	0	i
Cc1c(CN2CCCCC2)c(O)n(CCO)c(=O)c1C#N	10	?	?	.	-20	-13	8	i
O=C(Cn1cnc2cc([N+](=O)[O-])ccc2c1=O)NC1CCS(=O)(=O)C1 (stereo unspecified)	10	20	17	.	-2	-2	0	i
Cn1ccc(C(=O)OCC(=O)Nc2cccc(Cl)c2)n1	-1	-10	12	-2	-10	-3	2	.
Next structures follow.
SMILES	Env fusion inh	eIF4H inh	PABP FP inh	UUG fidelity	CSC inhib	MT1-MMP act inh	MT1-MMP act inh RFP	Rce1 inh	others
CC(=O)NC(CCS(C)(=O)=O)C(=O)Nc1cccc(C)c1C (stereo unspecified)	-38	0	-12	-18	-9	-2	5	i
CCC(=O)Nc1nc2cc(OC)ccc2s1	-247	-5	14	-18	-4	3	-6	i
O=[N+]([O-])c1ccc(COc2ccc(Br)cc2CN2CCOCC2)cc1	-14	-5	30	.	-4	-1	-6	i
CCC(=O)NN1CCN(c2ccncc2S(=O)(=O)N2CCCCC2)CC1	-13	-17	-7	-3	-4	-1	-2	.
CN1C2=NCCN2C(=O)c2cc(Cl)ccc21	-13	-2	-3	.	0	3	9	i
O=C(NNC(=S)Nc1ccc(OC(F)F)cc1)c1cc2c(s1)CCCC2	12	7	0	.	3	-1	2	i
CCCC1=C(C(=O)OCC)C(c2ccncc2)n2ncnc2N1 (stereo unspecified)	.	-7	1	-21	-10	-5	-2	i
C(#Cc1ccccc1)C[N+]1(CC#Cc2cccc3ccccc23)CCCC1	33	9	4	.	15	-31	-29	.
O=C(Nc1cccc(Cl)c1)Nc1ccccc1-n1ccnc1	-5	-2	-9	-14	-3	1	4	i
O=C(CSc1nc2[nH]ncc2c(=O)n1-c1ccccc1)N1CCCc2ccccc21	.	11	1	.	-7	.	.	i
CCC1(c2ccccc2)NC(=O)N(CC(=O)Nc2cc(S(=O)(=O)N3CCCCC3)ccc2N(C)C)C1=O (stereo unspecified)	.	.	.	.	-8	0	0	i
COc1ccc(-c2cc(C(=O)NC3CCCC3)no2)cc1OC	.	7	-3	.	5	4	-1	i
O=c1[nH]c(CSc2ncnc3sccc23)nc2ccccc12	-9	-5	-2	-19	5	0	2	i
O=C(O)c1c(-c2ccccc2)c2oc3ccccc3c2[nH]c1=O	-134	-1	17	-19	12	-3	2	?
CCCCCOc1ccc(NC(=O)C(=O)NCCCn2ccnc2)cc1	-254	-9	-24	-16	55	9	1	i
CC(NC(=O)Cn1cc2c(n1)CCCCC2)c1ccccc1 (stereo unspecified)	-28	-16	-13	0	-7	0	2	i
CCOc1ccccc1C(=O)NCCCCCC(=O)O	.	0	2	-23	.	3	3	i
Cc1ccc(/C=C/C(=O)Nc2cc(C)on2)cc1	-123	-4	-4	-9	42	7	-2	i
O=C(N/N=C/c1cc(Br)ccc1O)C(c1ccncc1)N1CCOCC1 (stereo unspecified)	22	8	-2	-31	.	0	3	i
O=S(=O)(c1ccc(F)cc1F)N1CCCN(c2ccc(C(F)(F)F)cn2)CC1	53	0	-1	2	-1	7	-7	i
O=C(COC(=O)[C@@H]1CCCN1C(=O)c1cccs1)Nc1ccc(Br)cc1	7	.	.	-20	-19	1	9	.
Cc1cc(N2CCCCC2)nc2ccccc12	2	6	6	.	8	2	5	i
c1cc2c3c(cccc3c1)NC1(CCCC1)N2	1	.	.	6	.	4	2	.
COc1cc2c(C(=O)N3CCN(c4cccc(Cl)c4)CC3)cn(CC(C)C)c(=O)c2cc1OC	14	-7	-8	-5	1	6	-1	i
CCOc1ccccc1OCCOc1ccc(F)cc1	.	-9	-3	-16	3	-7	-2	i
(listing goes on)
SMILES	Env fusion inh	eIF4H inh	PABP FP inh	UUG fidelity	CSC inhib	MT1-MMP act inh	MT1-MMP act inh RFP	Rce1 inh	others
CC(Nc1nc(-c2ccc(F)cc2)cs1)c1nc2cc(Cl)c(N3CCCCC3)cc2n1CCCO (stereo unspecified)	78*	.	.	-21	27	4	-9	i
COc1ccc(N2CCN(C(=O)CSc3nc(C)cs3)CC2)cc1	-2	.	.	.	7	0	-5	i
O=C(/C=C/c1cccs1)NCc1ccccc1	-19	-2	-1	.	11	0	-1	i
CCc1ccccc1NC(=O)CN1C(=O)C2CCCN2c2ncc(Cl)cc21 (stereo unspecified)	.	-4	8	-6	-5	-5	2	.
Cc1cc(C)n(CCNC(=O)c2ccco2)n1	-4	-13	-2	-20	4	2	3	.
O=C(NCCO)c1nc(C(=O)c2ccccc2)c2ccccc2n1	1	.	.	6	-10	-1	8	.
CC(C)c1c(C(=O)N/N=C/c2ccccc2OCc2c(F)cccc2Cl)nnn1-c1nonc1N	-10	-10	-2	-22	65	-7	-13	i
Cc1ccc(S(=O)(=O)N2CCN(c3cc4c(cc3[N+](=O)[O-])n(C)c(=O)n4C)CC2)cc1	.	-16	19	-1	-6	12	-14	i
O=C(NC(=S)Nc1ccc2ncccc2c1)c1ccccc1	-28	-8	-3	-16	-19	-2	-1	i
Cc1cnc(C(=O)Nc2cccc3cccnc23)cn1	40	1	-1	-27	.	1	-5	i
CCn1c(C)cc(/C=C2/SC(=S)N(CC(=O)O)C2=O)c1C	15	23	1	.	-3	-62	5	i
COC(=O)CN1C(C)=Nc2ccc(C)cc2C1c1ccccc1 (stereo unspecified)	17	-3	4	.	.	3	6	i
CCOC(=O)[C@@H]1[C@H]2COc3ccccc3[C@H]2N2C(=O)N(c3ccc(C(F)(F)F)cc3)C(=O)[C@]12C	-15	-1	-8	2	21	5	-6	i
O=C(N/N=C/c1cccnc1)c1cccc(N2CCCC2=O)c1	-12	-19	3	-18	-5	-1	-1	i
Cc1cccc(C(=O)NC(C)C(c2cccs2)N2CCOCC2)c1 (stereo unspecified)	-51	-7	-8	.	-9	1	1	i
O=C(Nc1nnc(C2=COCCO2)o1)c1ccc(S(=O)(=O)N2CCCCC2)cc1	-48	6	-1	.	9	-6	-1	i
O=C(NC1=NCCS1)NC12CC3CC(CC(C3)C1)C2	.	-7	-5	8	-1	0	1	i
Cc1ccc2c(c1)C1C[N+](C)(CC(=O)Nc3ccccc3Cl)CCC1N2C(=O)c1ccccc1Cl (stereo unspecified)	-16	.	.	4	-13	2	2	.
O=C(O)c1cc(N2N=C(C(F)(F)F)/C(=C/C=C/c3ccco3)C2=O)ccc1Cl	8	92	83	.	.	-4	11	.	eIF4H inh retest=-4;PABP FP inh retest=-2
CCOc1ccc(C(=O)NCC(C)CN(C)C)cc1OCC (stereo unspecified)	17	1	-11	1	-12	6	7	i
Cc1cc(C)cc(CC2CC(=O)N(c3cc(C)ccc3C)C2=O)c1 (stereo unspecified)	-15	-9	18	-3	0	-3	-4	i
CCOC(=O)c1sc2nc(-c3ccccc3)ccc2c1N	i	2	4	.	0	5	8	i
CC(=O)C[C@@H](O)CC(=O)[C@@H]1OC(=O)[C@H](C)CCCCc2ccccc21	-72	.	.	-8	.	-1	4	.
O=S(=O)(c1ccc(Sc2nnc3ccccn23)nc1)N1CCOCC1	-53	-10	-10	1	-21	2	5	i
O=C(NCc1ccco1)c1ccc(F)c(S(=O)(=O)N2CCCCC2)c1	12	-5	16	.	9	1	2	.
Other compounds follow.
SMILES	Env fusion inh	eIF4H inh	PABP FP inh	UUG fidelity	CSC inhib	MT1-MMP act inh	MT1-MMP act inh RFP	Rce1 inh	others
Cc1cc(=O)[nH]c(SCC(=O)Nc2ccccc2[N+](=O)[O-])n1	10	2	-11	-21	-19	0	2	i
COc1ccc(NC(=O)c2ccc([N+](=O)[O-])s2)c([N+](=O)[O-])c1	-5	2	-8	-21	16	-6	5	i
O=C1C2C3C=CC(CC3)C2C(=O)N1c1ccc([N+](=O)[O-])cc1 (stereo unspecified)	-14	0	1	2	13	-2	-2	i
CCOCCCNC(=O)C(c1ccc(C)cc1)N(Cc1ccc2c(c1)OCO2)C(=O)c1ccccn1 (stereo unspecified)	-1	-16	7	10	-10	0	-5	i
O=C(c1cccs1)N1CCN(S(=O)(=O)c2ccccc2)CC1	-15	-9	-2	-19	-4	1	-2	i
CC(=O)Nc1cc(C(=O)N(C)Cc2ccccc2)ccc1S(=O)(=O)c1ccc(C)cc1	-7	-2	8	.	.	1	2	i
CN(C)/C=C/C(=O)c1ncc(C(F)(F)F)cc1Cl	14	-3	-9	.	2	-6	3	i

Already shown: two of the compounds above.
SMILES	Env fusion inh	eIF4H inh	PABP FP inh	UUG fidelity	CSC inhib	MT1-MMP act inh	MT1-MMP act inh RFP	Rce1 inh	others
CC(=O)Nc1cc(C(=O)N(C)Cc2ccccc2)ccc1S(=O)(=O)c1ccc(C)cc1	-7	-2	8	.	.	1	2	i
CN(C)/C=C/C(=O)c1ncc(C(F)(F)F)cc1Cl	14	-3	-9	.	2	-6	3	i
